Source: PubChem BioAssay (several laboratories)
Rce1 inhib – yeast Rce1p protease inhibitors, primary screen, biochemical, fluorescence, cell-free homogeneous; CAAX prenyl protease 2 (Saccharomyces cerevisiae (strain ATCC 204508 / S288c)), Q03530; calls only; 290,000 compounds, 0.27% hits; AID 2563, 2010; yeast membranes, quenched prenylated peptide cleavage fluorescence;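 active = fall in fluorescence gain of 50% or more versus controls, with final raw signal at or below 3038400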;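 note: plate controls were neutral control wells for no effect and wells lacking membranes for full effect; tested at 10 µM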
CSC inhib – cancer stem cell viability inhibitors, primary screen, luminescence | cancer stem cell-like cells viability | 300,000 compounds, 1.1% hits | inhibition, % at 7.5 µM | AID 2717, 2010;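 active = mean at 75% or more and at least half the replicates too; tested in HMLE shEcad cells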;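 note: 0% = median of negative and 100% = median of positive control wells; the first replicate is given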
UUG fidelity – modulators of yeast start codon fidelity, primary screen, whole organism, S. cerevisiae, single point, plate reader; S. cerevisiae UUG-firefly luciferase reporter, luminescence/redox ratio; activity score, % at 18.7 µM; 350,000 compounds, 0.13% hits;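 active = replicate mean at a twofold rise or more, about +100% in these data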;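 note: firefly luciferase made from a UUG start codon reports start codon fidelity; reporter light over untreated wells divided by growth signal over untreated wells; some hits fall short of that in this replicate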
eIF4H FP inh – human eIF4H binding inhibitors, primary screen, translation initiation inhibitor project, biochemical, uHTS, fluorescence polarization | eIF4H fluorescence polarization binding assay | inhibition, % at 35 µM | 290,000 compounds, 0.94% hits;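 active = 50% or more with normal probe brightness, or confirmed in later tests; about a fifth of its hits are not listed in these tables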;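 note: calls also rest on retests at 20 µM and on dose response follow-up; 0% = protein and probe with vehicle and 100% = probe without protein; strong numbers were not always called active; many hits fall short of the cut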
PABP polyA inh – PABP poly(A) RNA binding inhibitors, primary screen, biochemical, fluorescence polarization, uHTS. AID 2014, 2009. 290,000 compounds, 1% hits. inhibition, % at 35 µM. Polyadenylate-binding protein 1 (Homo sapiens), P11940;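 active = 50% or more with normal probe brightness, or confirmed in later tests; about a fifth of its hits are not listed in these tables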;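 note: calls also rest on retests at 20 µM and on dose response follow-up; controls were probe without protein and protein plus probe with vehicle; some compounds called inactive have numbers as strong as hits; many hits fall short of the cut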
Target sequence (P11940 whole entry, looked up): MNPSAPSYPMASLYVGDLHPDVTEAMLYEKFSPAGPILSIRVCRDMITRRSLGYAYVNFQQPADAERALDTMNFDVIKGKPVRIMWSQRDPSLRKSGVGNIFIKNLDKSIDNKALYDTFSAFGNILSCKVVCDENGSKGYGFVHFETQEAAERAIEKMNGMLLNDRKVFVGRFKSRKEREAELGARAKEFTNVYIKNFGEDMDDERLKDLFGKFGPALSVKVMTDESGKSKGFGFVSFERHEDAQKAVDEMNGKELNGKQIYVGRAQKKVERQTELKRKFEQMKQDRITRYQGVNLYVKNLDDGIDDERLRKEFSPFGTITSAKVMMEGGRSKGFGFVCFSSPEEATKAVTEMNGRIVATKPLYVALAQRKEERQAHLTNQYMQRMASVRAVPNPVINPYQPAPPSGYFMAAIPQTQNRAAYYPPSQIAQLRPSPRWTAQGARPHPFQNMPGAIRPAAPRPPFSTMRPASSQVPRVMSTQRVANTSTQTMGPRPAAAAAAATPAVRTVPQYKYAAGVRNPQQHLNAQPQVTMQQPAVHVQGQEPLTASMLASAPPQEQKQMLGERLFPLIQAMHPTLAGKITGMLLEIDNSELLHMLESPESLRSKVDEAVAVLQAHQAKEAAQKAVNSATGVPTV
HIV Env fusion – inhibitors of HIV-1 Env-driven cell-cell fusion, primary screen, HeLa-JRFL effector, CEM21 target cells, luciferase | inhibition, % at 12.3 µM | 360,000 compounds, 1.1% hits | AID 651610, 2012;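 active = mean replicate inhibition score of at least 50 and every replicate individually at or above 50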;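 note: 0% = plate neutral controls and 100% = maraviroc near 300 nM; one replicate is shown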
MT1-MMP act inh – blockers of MT1-MMP proenzyme processing, primary screen, HT1080 RFP-PRO-GFP cells, GFP/RFP fluorescence. AID 651647, 2012. GFP/RFP ratio change, % at 20 µM. GFP/RFP ratio fluorescence, overnight; percent of plate control window, DMSO zero. Matrix metalloproteinase-14 (Homo sapiens), P50281. 360,000 compounds, 0.061% hits;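 active = GFP/RFP ratio change of at least 30% with cell ATP level not reduced by more than half and red fluorescence within 50% of control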; note: strong numbers were not always called active
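Assay system: HT1080 RFP-PRO-GFP cells. Benchmarks: DMSO vehicle wells and RFP-L50D-GFP reporter cell wells. Times: overnight cell settling, then overnight compound exposure, 37 °C, 5% CO2. Compound: 20 µM single dose, 1% DMSO. Read-out basis: GFP/RFP fluorescence ratio.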
MT1-MMP act inh RFP – second read-out of MT1-MMP act inh, no call of its own (marks repeat the call); RFP signal change, %; measured here: RFP expression control read;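 0 = vehicle wells; hits needed this value within 50% of zero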
The depositor's hits bear a star.

`O=[N+]([O-])c1cccc(COc2cccc(CN3CCCC3)c2)c1` gave UUG fidelity -8, HIV Env fusion 60*, MT1-MMP act inh 4 and MT1-MMP act inh RFP 5.
`CC(=O)c1cccc(S(=O)(=O)N2CCC(C(=O)Oc3ccc(-c4nnco4)cc3)CC2)c1` gave CSC inhib -15, UUG fidelity -7, HIV Env fusion -21, MT1-MMP act inh 3 and MT1-MMP act inh RFP 2.
Screening CCn1nc(C)c(Br)c1-c1nc(-c2ccc(C)cc2)no1 returned CSC inhib -1, UUG fidelity -20, eIF4H FP inh -7, PABP polyA inh -3, HIV Env fusion -15, MT1-MMP act inh -1 and MT1-MMP act inh RFP 0.
For CCOCCC(=O)Nc1ccc2c(c1)c(=O)n(C)n2-c1ccccc1F the results were UUG fidelity -6, HIV Env fusion -10, MT1-MMP act inh 0 and MT1-MMP act inh RFP 3.
For COc1ccc(NC(=O)c2ccc(F)c(F)c2)c2ccccc12 the results were Rce1 inhib inactive, CSC inhib 4, UUG fidelity -19, eIF4H FP inh 2, PABP polyA inh 2, HIV Env fusion 3, MT1-MMP act inh -1 and MT1-MMP act inh RFP 4.
CCOc1cccc2sc(NC(=O)c3ccc(Br)s3)nc12 was read as Rce1 inhib inactive, CSC inhib 8, UUG fidelity -16, eIF4H FP inh -19, PABP polyA inh 2, HIV Env fusion -29, MT1-MMP act inh -8 and MT1-MMP act inh RFP -14.
Cc1cc(C)n(-c2ccc(C(=O)Nc3sccc3C(N)=O)cc2)n1 was read as Rce1 inhib inactive, CSC inhib 12, UUG fidelity -6, eIF4H FP inh 7, PABP polyA inh 11, MT1-MMP act inh -8 and MT1-MMP act inh RFP 0.
Screening Cc1cc(NCCCO)n2nc(-c3cccs3)cc2n1 returned Rce1 inhib inactive, CSC inhib -7, eIF4H FP inh -1, PABP polyA inh 10, HIV Env fusion -11, MT1-MMP act inh 2 and MT1-MMP act inh RFP 3.
COc1ccc(/C=C(/NC(=O)c2ccco2)C(=O)N2CCCC2=O)cc1 was read as CSC inhib 8, eIF4H FP inh 1, PABP polyA inh -4, HIV Env fusion 16, MT1-MMP act inh -2 and MT1-MMP act inh RFP 4.
For COC(=O)c1ccccc1NC1=C/C(=N\S(=O)(=O)c2ccc(C(=O)O)cc2)c2ccccc2C1=O the results were Rce1 inhib inactive, UUG fidelity -11, eIF4H FP inh 19, PABP polyA inh -6, MT1-MMP act inh 13 and MT1-MMP act inh RFP 7.
CN(Cc1cccc(F)c1)C(=O)c1cc(S(=O)(=O)N2CCOCC2)ccc1N1CCCC1 was read as UUG fidelity 11, HIV Env fusion 4, MT1-MMP act inh 0 and MT1-MMP act inh RFP -4.
For Nn1c(SCc2cccc(Br)c2)nnc1-c1ccncc1 the results were Rce1 inhib inactive, CSC inhib -3, UUG fidelity -14, eIF4H FP inh -14, PABP polyA inh 9, HIV Env fusion -16, MT1-MMP act inh 2 and MT1-MMP act inh RFP 1.
For O=C(Nc1ccccc1O)c1ccc(C(=O)c2ccccc2)o1 the results were Rce1 inhib inactive, CSC inhib 14, UUG fidelity -18, eIF4H FP inh 0, PABP polyA inh 12, HIV Env fusion -5, MT1-MMP act inh 1 and MT1-MMP act inh RFP -5.
`Cc1cc(C=O)c(C)n1-c1cc(C(F)(F)F)ccc1N1CCOCC1` gave UUG fidelity 12, eIF4H FP inh -11, PABP polyA inh -6, HIV Env fusion -121, MT1-MMP act inh -13 and MT1-MMP act inh RFP -6.
For COC(=O)[C@H](Cc1ccc(O)cc1)NC(=O)Cn1cnc2c(NCc3ccccc3)ncnc21 the results were UUG fidelity -19, HIV Env fusion 6, MT1-MMP act inh 0 and MT1-MMP act inh RFP 4.
For Cc1nn(CC(=O)N2CCOCC2)c(=O)c2c1sc1ccccc12 the results were Rce1 inhib inactive, CSC inhib -9, UUG fidelity -10, eIF4H FP inh -13, PABP polyA inh 11, HIV Env fusion 1, MT1-MMP act inh 2 and MT1-MMP act inh RFP 2.
For Cc1ccc(-c2n[nH]c(=O)c3ccccc23)cc1N the results were Rce1 inhib inactive, CSC inhib 4, UUG fidelity -12, eIF4H FP inh 1, PABP polyA inh 3, HIV Env fusion -21, MT1-MMP act inh 1 and MT1-MMP act inh RFP -4.
Cc1ccc(C(=O)O)cc1NC(=O)Nc1ccc2c(c1)OCO2 was read as Rce1 inhib inactive, CSC inhib -22, eIF4H FP inh -6, PABP polyA inh 1, HIV Env fusion -21, MT1-MMP act inh 1 and MT1-MMP act inh RFP 1.
Screening COc1ccc(NC(=O)CCc2c(C)nc3nc(CNC(=O)c4cccc(F)c4)nn3c2C)cc1OC returned Rce1 inhib inactive, CSC inhib 0, UUG fidelity 1, eIF4H FP inh 0, PABP polyA inh -5, HIV Env fusion 4, MT1-MMP act inh -1 and MT1-MMP act inh RFP 4.
`CSC(=NC#N)N1CCN(c2cccc(Cl)c2)CC1` gave Rce1 inhib inactive, CSC inhib 2, UUG fidelity -16, eIF4H FP inh -1, PABP polyA inh 4, HIV Env fusion -78, MT1-MMP act inh 20 and MT1-MMP act inh RFP 9.
`Fc1cccc(F)c1[B-](F)(F)F` gave UUG fidelity -8, HIV Env fusion 14, MT1-MMP act inh 4 and MT1-MMP act inh RFP 1.
Screening CSC(=NC(C)c1ccccc1)NS(=O)(=O)c1cccs1 (stereo unspecified) returned Rce1 inhib inactive, CSC inhib -14, UUG fidelity -9, eIF4H FP inh 0, PABP polyA inh 5, HIV Env fusion 6, MT1-MMP act inh 1 and MT1-MMP act inh RFP -3.
`COC(=O)c1ccc(CSc2nnc(NC(C)C)s2)cc1` gave Rce1 inhib inactive, CSC inhib -17, UUG fidelity -3, eIF4H FP inh -7, PABP polyA inh 3, MT1-MMP act inh 3 and MT1-MMP act inh RFP 1.
`CCN1CCN(CCCNC(=O)C2CCN(c3nnc(-n4cccc4)s3)CC2)CC1` gave Rce1 inhib inactive, CSC inhib -22, UUG fidelity -14, eIF4H FP inh -10, PABP polyA inh -2, HIV Env fusion -6, MT1-MMP act inh -1 and MT1-MMP act inh RFP 1.
For O=C(NC(Cc1ccccc1)C(=O)O)NC12CC3CC(CC(C3)C1)C2 (stereo unspecified) the results were Rce1 inhib inactive, CSC inhib -6, UUG fidelity -4, eIF4H FP inh -8, PABP polyA inh -4, HIV Env fusion 19, MT1-MMP act inh 4 and MT1-MMP act inh RFP 1.
For C=C1CCN(c2ccc(C(=O)NCc3ccccc3)cc2[N+](=O)[O-])CC1 the results were Rce1 inhib inactive, CSC inhib 7, UUG fidelity -16, eIF4H FP inh -5, PABP polyA inh 8, HIV Env fusion -83, MT1-MMP act inh 2 and MT1-MMP act inh RFP -2.
For CN1C(=O)/C(=C/c2ccc(OC(=O)c3ccco3)cc2)SC1=S the results were Rce1 inhib inactive, CSC inhib 4, UUG fidelity 5, eIF4H FP inh -10, PABP polyA inh -5, HIV Env fusion -8, MT1-MMP act inh -53 and MT1-MMP act inh RFP 9.
For Cc1nnc(SC(C)C(=O)NCC2CCCO2)n1-c1ccccc1 (stereo unspecified) the results were Rce1 inhib inactive, CSC inhib -2, UUG fidelity -19, eIF4H FP inh 3, PABP polyA inh -5, HIV Env fusion 20, MT1-MMP act inh -6 and MT1-MMP act inh RFP 5.
For CCN(CC)CC(C)(C)NS(=O)(=O)c1ccc(Cl)cc1 the results were Rce1 inhib inactive, CSC inhib 0, UUG fidelity -7, eIF4H FP inh -4, PABP polyA inh 14, MT1-MMP act inh 1 and MT1-MMP act inh RFP 6.
`COc1ccc(/C=N\NC(=O)c2c(C)nc3ccc(Br)cn23)cc1` gave Rce1 inhib inactive, CSC inhib 57, eIF4H FP inh -9, PABP polyA inh -18, HIV Env fusion -141, MT1-MMP act inh 1 and MT1-MMP act inh RFP -6.
For CC(=O)Nc1ccc(S(=O)(=O)N2CCC(Oc3ccc(-n4cnnn4)cc3)CC2)cc1 the results were Rce1 inhib inactive, CSC inhib -7, UUG fidelity -2, eIF4H FP inh -11, PABP polyA inh -7, HIV Env fusion -7, MT1-MMP act inh 1 and MT1-MMP act inh RFP -11.
`COCC(=O)Nc1ccc(Nc2ccccc2)cc1` gave Rce1 inhib inactive, CSC inhib 11, UUG fidelity -10, eIF4H FP inh -8, PABP polyA inh -4, HIV Env fusion -16, MT1-MMP act inh 9 and MT1-MMP act inh RFP 3.
For COc1ccc(NC(=O)CN2CCOCC2)cc1 the results were Rce1 inhib inactive, CSC inhib -10, UUG fidelity 5, eIF4H FP inh -9, PABP polyA inh 13, HIV Env fusion -13, MT1-MMP act inh 2 and MT1-MMP act inh RFP -3.
For COc1cc(OC)cc(C(=O)NCCCNC(=O)c2ccccn2)c1 the results were Rce1 inhib inactive, CSC inhib 1, UUG fidelity 4, eIF4H FP inh 1, PABP polyA inh -9, HIV Env fusion -7, MT1-MMP act inh -2 and MT1-MMP act inh RFP 3.
COc1ccc(-n2c(Cc3cccn3C)nnc2SCC(=O)Nc2cc(C)cc(C)c2)cc1 was read as Rce1 inhib inactive, CSC inhib 7, UUG fidelity -18, eIF4H FP inh 19, PABP polyA inh -15, HIV Env fusion -41, MT1-MMP act inh -1 and MT1-MMP act inh RFP 0.
Screening COc1cc(/C=N/NC(=O)c2nc(C)cc(C)n2)ccc1O returned Rce1 inhib inactive, CSC inhib -14, eIF4H FP inh -2, PABP polyA inh -6, MT1-MMP act inh 5 and MT1-MMP act inh RFP 6.
For O=C(CSc1nnc(Cc2ccccc2)n1C1CCCCC1)N1CCOCC1 the results were Rce1 inhib inactive, CSC inhib 8, UUG fidelity -5, eIF4H FP inh 11, PABP polyA inh 8, HIV Env fusion 19, MT1-MMP act inh 1 and MT1-MMP act inh RFP 2.
Screening Cc1cc2cc(CN(Cc3ccc4c(c3)OCO4)Cc3nnnn3C3CCCC3)c(=O)[nH]c2cc1C returned Rce1 inhib inactive, CSC inhib -11, UUG fidelity -15, eIF4H FP inh -2, PABP polyA inh 0, HIV Env fusion 11, MT1-MMP act inh 5 and MT1-MMP act inh RFP -7.
Screening CCCc1c(C)nc2ccc(OC)cc2c1SCCC(=O)O returned Rce1 inhib inactive, CSC inhib 5, UUG fidelity 12, eIF4H FP inh -8, PABP polyA inh -5, HIV Env fusion 0, MT1-MMP act inh -1 and MT1-MMP act inh RFP 0.
Screening COC(=O)c1ccc(=O)n(CC(=O)c2ccc(Cl)cc2)c1 returned Rce1 inhib inactive, CSC inhib -10, eIF4H FP inh 2, PABP polyA inh 3, HIV Env fusion 12, MT1-MMP act inh 0 and MT1-MMP act inh RFP 0.
O=C(CCCCC(=O)Nc1c(I)cc(I)c(C(=O)O)c1I)Nc1c(I)cc(I)c(C(=O)O)c1I was read as Rce1 inhib inactive, CSC inhib -5, UUG fidelity -5, HIV Env fusion -8, MT1-MMP act inh 1 and MT1-MMP act inh RFP 0.
`O=C(CCNC(=O)N1CC(=O)Nc2ccccc21)NCc1ccccc1Cl` gave UUG fidelity -4, HIV Env fusion 4, MT1-MMP act inh 0 and MT1-MMP act inh RFP 3.
For CC(=O)OCC(OC(C)=O)C(OC(C)=O)C(OC(C)=O)C(=O)Nc1ccccc1C (stereo unspecified) the results were Rce1 inhib inactive, CSC inhib -14, UUG fidelity -13, eIF4H FP inh 2, PABP polyA inh -10, HIV Env fusion -13, MT1-MMP act inh 2 and MT1-MMP act inh RFP 3.
